Source: PubChem BioAssay (ICCB-Longwood Screening Facility, Harvard Medical School)
GIV Gai3 FP – inhibitors of GIV peptide binding to Galpha-i3, primary screen, biochemical, fluorescence polarization, FITC-GIV GBA peptide, rat Galphai3; Guanine nucleotide-binding protein G(i) subunit alpha-3 (Rattus norvegicus), P08753; 90 min; hits give low values; scaled: aluminum fluoride 0%, vehicle 100%; percent of control (FP), % (concentration not given with the values); actives 0.42% (n = 210,000);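 active = replicate mean at 85% of control or lower, very high polarization wells dropped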;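 note: wells of about 15 µL received 100 nL stock; the first replicate is given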
Target sequence (P08753 whole entry, looked up): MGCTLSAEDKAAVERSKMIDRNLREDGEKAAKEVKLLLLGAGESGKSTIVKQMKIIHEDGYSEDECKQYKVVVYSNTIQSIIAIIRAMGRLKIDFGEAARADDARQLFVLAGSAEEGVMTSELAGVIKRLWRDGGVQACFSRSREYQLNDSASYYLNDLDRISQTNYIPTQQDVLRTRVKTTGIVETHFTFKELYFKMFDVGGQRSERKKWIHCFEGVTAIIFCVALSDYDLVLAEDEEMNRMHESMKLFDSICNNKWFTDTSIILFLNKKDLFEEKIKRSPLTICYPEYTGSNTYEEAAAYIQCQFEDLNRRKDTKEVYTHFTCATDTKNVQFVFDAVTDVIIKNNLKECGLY
Numbers without * were called inactive; & = joins results of further samples. Some of the compounds tested; the hit share may differ from the screen's.

SMILES	GIV Gai3 FP
Cc1c(C(c2cccc(Br)c2)c2c(C)n(C)n(-c3ccccc3)c2=O)c(=O)n(-c2ccccc2)n1C	117.5
O=C(Cn1c2ccccc2c2ncn(Cc3nc(C4CC4)no3)c(=O)c21)NCCC1=CCCCC1	106.3
S=c1[nH]nc2c(Nc3ccc(Cl)cc3)nc3nonc3n12	107.8
CC(=O)C1=NN(c2ccccc2)C(c2c[nH]c3ccccc23)N1c1ccc(F)cc1 (stereo not drawn)	141.9
CCOC(=O)c1ccc2c(c1)N(CCCS(=O)(=O)O)/C(=C/C=C/c1n(CCCS(=O)(=O)[O-])c3cc(C(=O)OCC)ccc3[n+]1CC)N2CC	-62.4*
CN1C(=O)Cc2cc(S(=O)(=O)N3CCCN(c4nc5cccnc5s4)CC3)ccc21	102.1
Cc1ccccc1C1CC(=O)Nc2c1ccc1ccccc21 (stereo not drawn)	107.1
Cc1ccc(Nc2nc(-c3ccc(Br)cc3)cs2)nc1	100.7
N#CC1=C(N)C(C#N)(C#N)[C@@H](c2ccccc2)[C@@H]2CCCC=C12	116.9
CCOC(=O)c1sc2nc(SCC(=O)N3CCCC3)n(Cc3ccc(C)cc3)c(=O)c2c1C	108.2&111.5
CCCc1cc(C2CCCN2C(=O)Nc2ccsc2C(=O)OC)no1 (stereo not drawn)	99.4
CC(=O)c1cc2c(cc1NC(=O)c1cc3nc(-c4ccc(C)cc4)cc(C(F)(F)F)n3n1)OCO2	111.5
Cc1nc(N2CCCCC2)c2c(C)c(C(=O)Nc3c(F)cccc3F)sc2n1	100.4
COc1ccc(C(=O)c2sc3nc(C)c(C(=O)Nc4ccccc4)c(C)c3c2N)cc1	110.7
COc1cc(C2C3=C(CC(C)(C)CC3=O)OC3=C2C(=O)CC(C)(C)C3)ccc1Oc1ccc(C(F)(F)F)cc1[N+](=O)[O-]	115.1
CCOC(=O)c1cc2c(N=NC(N)=S)c3ccccc3c-2[nH]c1C	110.6
O=C(O)C1CSC(c2ccc(Cl)cc2)N1 (stereo not drawn)	102.5
COc1ccc(S(=O)(=O)N(CC(=O)Nc2ccc(S(=O)(=O)N3CCCCC3)cc2)c2ccc(Cl)cc2)cc1	104.9
Fc1ccc(-c2noc(-c3ccc(N4CCC5(CC4)OCCO5)nc3)n2)cc1	105.2
CCOC(=O)C1=C(C)NC2=C(C(=O)C(C(=O)OCC)C(c3ccc(OC)cc3)C2)C1c1cccc(OC)c1 (stereo not drawn)	102.6
CCOC(=O)c1c(NC(=O)Cn2nc(C)c([N+](=O)[O-])c2C)sc2c1CCC(C)C2 (stereo not drawn)	103.2
Cc1cccc(C)c1NC(=O)C1(N(C)C(=O)c2ccccc2Br)CCC(C(C)(C)C)CC1 (stereo not drawn)	107.1
CC(=O)Nc1cccnc1-c1ccc(C(=O)Nc2ccc(C(C)C)cc2)cc1	109.1
CC(C)NC(=O)C1CCCN(C(=O)c2ccc(NS(=O)(=O)c3ccc(C(C)(C)C)cc3)cc2)C1 (stereo not drawn)	106.8
CCCCCOC(=O)c1c(C)oc2c1cc(NS(=O)(=O)c1ccc(OC)cc1)c1ccccc12	107.1
CCc1cc(Sc2ccc(NC(=O)CC(C)C)cc2)n2ncnc2n1	101.2
CN(C)S(=O)(=O)N1CCCC(c2cc(-c3ccc(F)cc3)n[nH]2)C1 (stereo not drawn)	98.3
COc1ccc(C(=O)N2CCc3c([nH]c4ccccc34)C2)cc1	107.0
CCOC(=O)c1ccc(NC(=O)CSc2nc3ccc(N4CCOCC4)cc3c(=O)n2Cc2ccccc2)cc1	109.8
CCOC(=O)c1c(NC(=O)CSc2nnc(CNC(=O)c3cccc(C)c3)n2C)sc2c1CCCC2	102.1
Cc1ccc(NS(=O)(=O)c2cc(-c3nc(C(C)C)cs3)cs2)c(C)c1	104.6
CC(=O)c1ccc(NC(=O)CSc2nn3c(SCC(=O)Nc4ccc(C(C)=O)cc4)nnc3s2)cc1	106.4
CC(C)(C)OC(=O)N1CC(Sc2nc3ccccc3[nH]2)CC1C(=O)O (stereo not drawn)	106.0
Cc1c(C)c(C2=NON3N(C(=O)/C=C/c4ccccc4)c4ccccc4N23)c(C)c(C)c1Cl	106.5
O=C(NCc1c(-c2ccc(F)cc2)nc2n1CCS2)c1ccc(Br)cc1	96.3
Cc1ccc2nc(NC3=NC(C(=O)Nc4ccc(Cl)c(Cl)c4)CC(=O)N3)nc(C)c2c1 (stereo not drawn)	110.6
Cc1sc(-c2cc(C(F)(F)F)[nH]n2)cc1S(=O)(=O)NC1CCCCC1	98.1
CCN(Cc1ccc(F)cc1)Cc1cc(=O)n2nc(C(C)(C)C)sc2n1	118.7
Cc1[nH]c(C)c(S(=O)(=O)NCc2ccco2)c1-c1nc(C2CC2)no1	111.7
COc1ccc(C2CC(=O)C3=C(C2)NC(C)=C(C(=O)OC2CCCC2)C3c2ccccc2)cc1 (stereo not drawn)	112.6
CCSCCOC(=O)C1=C(C)NC2=C(C(=O)CCC2)C1c1ccc(OC)c(OCc2ccccc2)c1 (stereo not drawn)	104.8
COc1ccc(-c2ccc(-c3nc(-c4ccccc4)c(-c4ccccc4)[nH]3)o2)c([N+](=O)[O-])c1	112.6
CCn1c(CCc2ccccc2NS(=O)(=O)c2ccc3c(c2)OCCO3)nc2ccccc21	97.7
O=C1CC(c2cccc(Cl)c2)c2cc(Br)c3ccccc3c2N1 (stereo not drawn)	100.5
Cc1c(Cl)cccc1S(=O)(=O)Nc1cc2c(cc1N1CCOCC1)n(C)c(=O)n2C	100.7
COc1ccc(CNC(=O)c2ccc(-c3ccc(S(=O)(=O)N4CCCC4)cc3)cc2)c(OC)c1	101.6
O=C1Cc2cc(S(=O)(=O)N3CCc4ccccc4C3)cc3c2N1CCC3	102.6
CN(CC1(C)CCOCC1)S(=O)(=O)c1ccccc1C(F)(F)F	98.4

Part of the list above, set out differently.
structure | GIV Gai3 FP
Cc1c(Cl)cccc1S(=O)(=O)Nc1cc2c(cc1N1CCOCC1)n(C)c(=O)n2C | 100.7
COc1ccc(CNC(=O)c2ccc(-c3ccc(S(=O)(=O)N4CCCC4)cc3)cc2)c(OC)c1 | 101.6
O=C1Cc2cc(S(=O)(=O)N3CCc4ccccc4C3)cc3c2N1CCC3 | 102.6

(cont.)
SMILES	GIV Gai3 FP
COc1ccc(CN(Cc2cc(=O)n3nc(C(C)(C)C)sc3n2)CC(C)C)cc1OC	113.2
CC1(C)c2ssc(=S)c2-c2ccccc2N1C(=O)CSC1=NCCS1	112.0
CCCOc1ccc(-c2cc(C(=O)N3CC(C)CC(C)C3)c3ccccc3n2)cc1 (stereo not drawn)	103.1
COc1cc(C2C3=C(CCCC3=O)N(c3ccc([N+](=O)[O-])cc3C)C(=N)/C2=C(/O)c2ccc(C)cc2)cc(OC)c1OC (stereo not drawn)	113.9
CC(C)(C)NC1=NCCNC12CCN(S(=O)(=O)c1ccc(Cl)s1)CC2	102.8
O=[N+]([O-])c1cc(Cl)c2c(c1)-c1ccccc1S(=O)(=O)N2	116.0
C#CCN1C(=O)C2(OCCO2)c2ccccc21	107.5
O=C(NCCN1CCCCC1)C1CCN(c2ncc(-c3ccccc3)cn2)CC1	107.4
CCCCNC(=O)c1cc(NS(=O)(=O)c2ccc(Br)cc2)cnc1N1CCNCC1	107.6
Cc1cccc(N2C(=O)C(=O)/C(=C(/O)c3ccccc3)C2c2cccc(F)c2)c1 (stereo not drawn)	106.7
COc1cccc(CN2C(=O)c3ccccc3CC2(C)C(=O)NCc2ccccc2OC)c1 (stereo not drawn)	106.3
CCOc1cc(/C=C2\SC(=N)N(c3nonc3N)C2=O)ccc1OCCN1CCOCC1	108.9
CCc1ccc(S(=O)(=O)c2cnc(N3CCN(c4ccccn4)CC3)nc2N)cc1	96.0
Cc1cccc(-c2noc(CSc3nc4cc5c(cc4c(=O)n3Cc3ccccc3)OCO5)n2)c1	102.7
N#CC1=C(N)Oc2n[nH]c(-c3ccccc3)c2C1c1ccc(OC(=O)N2CCOCC2)cc1 (stereo not drawn)	94.3
Cc1ccc(CNC(=O)C2CCN(c3nn4c(=O)c5c(nc4s3)CCCC5)CC2)cc1	99.8
Cc1cc2c(cc1C)-c1c(ssc1=Nc1cccc(C)c1C)C(C)(C)N2	106.7
O=C(NCc1cccnc1)c1nc(-c2ccc(S(=O)(=O)N3CCOCC3)cc2)no1	101.0
Cc1noc(C)c1C1CCCN1Cc1cn[nH]c1-c1ccccc1 (stereo not drawn)	120.1
CCc1ccc(NC(=O)CSC2=C(C#N)C(c3ccccc3)C(C(=O)Nc3ccccc3OC)=C(C)N2)cc1 (stereo not drawn)	102.8
COc1ccc2c(c1)N(C)/C(=C1/SC(=S)N(Cc3ccccc3)C1=O)S2	121.0
O=C(Nc1ccccc1Cl)c1ccc2c3c(onc13)-c1ccccc1C2=O	110.8
N#Cc1c(/N=C/c2c(F)cccc2Cl)oc(-c2ccccc2)c1-c1ccccc1	115.2
CCCc1oc2ccc(NS(=O)(=O)c3ccc(C(C)(C)C)cc3)cc2c1C(=O)OCC	102.7
COc1ccc(CN2CCCC2c2cc(C)no2)cc1COCC(F)(F)F (stereo not drawn)	105.7
CCOc1ccc(NC(=O)c2cc(S(=O)(=O)N3CCN(c4ccccc4OC)CC3)ccc2F)cc1	111.3
Nc1c(C(=O)NCc2ccccc2)sc2nc(-c3cccs3)cc(C(F)(F)F)c12	117.7
CCC1CCCCN1C(=O)c1sc2ncn(C)c(=O)c2c1C (stereo not drawn)	103.2
C=Cc1ccc(COc2cc(C(=O)OC)nc3ccc(Cl)cc23)cc1	99.5
Oc1ccc(Br)cc1C1Nc2cccc3cccc(c23)N1	120.2
CCCC1=C(C(=O)OCC)C(c2c(C)nn(-c3ccccc3)c2Cl)C(C#N)=C(N)O1 (stereo not drawn)	107.2
NC(=O)CN1C(=O)C2(OCCO2)c2ccccc21	108.7
CCOC(=O)c1ccccc1OC1OC(COC(C)=O)C(OC(C)=O)C(OC(C)=O)C1NC(C)=O (stereo not drawn)	109.8
Cc1ccc(C23CC4CC(CC(C(=O)CN5CCOCC5)(C4)C2)C3)cc1	113.3
Cn1c(SCC(=O)c2cn(C)c3ccccc23)nnc1-c1ccc2c(c1)OCCCO2	100.0
COc1ccc(OC)c(CNS(=O)(=O)c2cc(-c3nc(C)c(C)s3)sc2C)c1	100.6
Cc1ccc2c(c1)c(-c1ccccc1)c(-c1ccccc1)n2CC(O)CN1C(=O)CCC1=O (stereo not drawn)	102.9
O=C1CCCC2=C1C(c1cccc(Cl)c1)Nc1ccc3ncccc3c12 (stereo not drawn)	109.1
Cc1cc(N2CCN(c3ccccc3)CC2)nc(NCc2ccccc2)n1	100.0
Cc1ccccc1CS/C(Nc1ccccc1C)=C(\C#N)C(=O)NCc1cccs1	105.0
CCNC(=O)C1CCCN(c2cc(=O)n(C)c(=O)n2C)C1 (stereo not drawn)	103.0
CC1(C)c2ssc(=S)c2-c2ccccc2N1C(=O)c1cccc([N+](=O)[O-])c1	112.5
O=C(N/N=C/c1ccc([N+](=O)[O-])cc1)C1C(c2ccccc2)C(C(=O)N2CCOCC2)C1c1ccccc1 (stereo not drawn)	110.3
CCN1CCN(Cc2nc3nc(C)cc(N4CCCCC4)n3n2)CC1	95.7
CCOc1ccccc1-c1nc(-c2ccc3c(c2)Sc2ccccc2C(=O)N3C)no1	99.8
NC(=O)C1CCN(C(=O)c2ccc3c(c2)nc(SCc2ccncc2)n2c4ccccc4nc32)CC1	113.9
COc1ccc(/C=C2\N=C(c3cncc(Br)c3)OC2=O)c(OC)c1OC	100.5
O=C(c1nc(C2CC2)nc2c1OCCO2)N1CCc2ccccc21	102.5
CC1(C)CC(=O)C2=C(C1)c1c(ccc3ncccc13)NC2c1cccs1 (stereo not drawn)	102.9
Cc1noc(-c2ccc(S(=O)(=O)N3CCC(Cc4ccccc4)CC3)s2)c1C	101.6
CCCCn1c(SCc2nc(-c3ccc4c(c3)OCO4)no2)nc2cc3c(cc2c1=O)OCO3	104.7
COc1ccc(Br)cc1C1C(C(=O)OCC2CCCO2)=C(C)NC2=C1C(=O)CC(C)(C)C2 (stereo not drawn)	105.3
CCN(CC)C(=O)COc1ccc2c3c(c(=O)oc2c1C)CCCC3	115.4
Cc1cc(C)c(C2N(Cc3ccccc3)CCN2Cc2ccccc2)c(C)c1	115.4
Cc1ccc(CNC(=O)c2ccc(-c3nc(CCN(C)C(=O)c4ccc(Cl)cc4)no3)cc2)cc1	104.4
CCn1c(C(=O)NCCc2c[nH]c3ccccc23)cc2cc(S(=O)(=O)N(C)C)ccc21	109.0
O=c1n(Cc2c(F)cccc2Cl)nc2c(S(=O)(=O)N3CCCC3)cccn12	114.2
Cc1ccc(O)c(CN2CCCCC2)c1	120.5
CCC(C)n1c(=S)[nH]c2ccc(Cl)cc2c1=O (stereo not drawn)	97.9
CCOC(=O)C1=C(O)/C(=C/c2ccc([N+](=O)[O-])cc2)SC1=Nc1ccc([N+](=O)[O-])cc1	107.1

Reprinted from the entries so far (5 entries):
SMILES	GIV Gai3 FP
COc1ccc(Br)cc1C1C(C(=O)OCC2CCCO2)=C(C)NC2=C1C(=O)CC(C)(C)C2 (stereo not drawn)	105.3
CCN(CC)C(=O)COc1ccc2c3c(c(=O)oc2c1C)CCCC3	115.4
Cc1cc(C)c(C2N(Cc3ccccc3)CCN2Cc2ccccc2)c(C)c1	115.4
Cc1ccc(CNC(=O)c2ccc(-c3nc(CCN(C)C(=O)c4ccc(Cl)cc4)no3)cc2)cc1	104.4
CCn1c(C(=O)NCCc2c[nH]c3ccccc23)cc2cc(S(=O)(=O)N(C)C)ccc21	109.0

Continued.
SMILES	GIV Gai3 FP
O=C(C1CCCO1)N1CCN(S(=O)(=O)c2ccc3[nH]c(=O)sc3c2)CC1 (stereo not drawn)	96.1
CCCNC(=O)Cn1ccc2c(SCc3ccc(OC)cc3)nccc21	105.8
O=C(CCCN1C(=O)/C(=C\c2cccs2)SC1=S)Nc1ccccc1Br	106.5
Cc1ccc(C(=O)N2CCC(CCNC(=O)C3CC3)CC2)cc1	101.7
c1cc2c(cc1-c1noc(C3CC3)n1)ncn2CCN1CCCC1	105.2
